total CFTR: total CFTR protein upregulators, primary screen, cell-based, HeLa F508del-CFTR, immunofluorescence, viability (AID 1224863). 10,000 tested, 0.1% active. HeLa F508del-CFTR, immunofluorescence total CFTR, 24 h; by the record results were divided by relative cell number; some inactives read as strong as hits. calls, or highest fold increase where a dose series was run; in the data nearly all actives have a first-pass fold increase above 1.5; a few of its hits are not listed in these tables;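 further: total CFTR protein by anti-CFTR immunofluorescence in fixed cells; first pass at 25 µM or 10 µg/mL by library and series up to twice that; 1 = untreated cells; first-pass hits also needed half or more of the cells alive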
total CFTR fold 25 µM: further read-out of total CFTR, marked with its call; fold increase; measured here: primary screen single dose 25 uM; library dosed in µM
total CFTR fold 10 ug/mL: also measured in total CFTR; calls as there; fold increase; measured here: primary screen 10 ug/mL
total CFTR viability 25 µM: second read-out of total CFTR, no call of its own (marks repeat the call); viability, %; measured here: primary viability 25 uM; library dosed in µM;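 0% = killed and 100% = untreated cells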
total CFTR viability 10 ug/mL: further read-out of total CFTR, marked with its call; viability, %; measured here: primary viability 10 ug/mL;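 0% = killed and 100% = untreated cells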
Active calls of the source: *; i = inactive; . = no result given; & = joins results of further samples. A portion of the library; the hit share may differ from the screen's.

SMILES	total CFTR	total CFTR fold 10 ug/mL	total CFTR viability 10 ug/mL	others
O=C(c1cc2ccccc2o1)c1cc(Cl)sc1Cl	i	1	98
CN(C(=O)CN1C(=O)COc2ccccc21)C1CCCc2ccccc21 (stereo not drawn)	i	1	87
O=S(=O)(NCc1cc2cc(F)ccc2s1)c1ccc(Br)s1	i	0.99	94
C[C@]12C=CC(=O)C=C1CCC1C2[C@@H](O)C[C@@]2(C)C1CC[C@]2(O)C(=O)COC(=O)CCC(=O)O (stereo partly drawn)	i	.	.	total CFTR fold 25 µM=1.1;total CFTR viability 25 µM=86
CCCn1c(C)cc(-c2csc(NC(=O)C34CC5CC(CC(Cl)(C5)C3)C4)n2)c1C	i	1.1	86
COCCNc1nnc(SCCN2C(=O)c3ccccc3C2=O)s1	i	0.96	95
COc1c(Br)cc(Br)cc1CNC(C)c1cnn(C)c1C (stereo not drawn)	i	0.96	100
Cc1cc(NC(=O)C(C)(C)C)sc1C(=O)NCCCN1CCCC(C)C1 (stereo not drawn)	i	1.1	95
Cc1csc(NC(=O)C2CCCNC2)n1 (stereo not drawn)	i	0.79	92
O=C(CSc1nncn1Cc1ccco1)NC1CCCCC1	i	1.1	89
Cc1nc2nc(C(F)(F)F)nn2c(C)c1CCC(=O)N1CCOCC1	i	0.98	89
COc1cc(CNC(=O)CCCC/C=C/C(C)C)ccc1O	i	.	.	total CFTR fold 25 µM=0.96&0.98;total CFTR viability 25 µM=86&88
Nc1ccc(-c2c3c(=O)[nH][nH]c(=O)c3c3n2CCC3)cc1	i	1	102
O=c1[nH]c(CN(Cc2ccco2)Cc2ccco2)nc2cc(Cl)ccc12	i	1	75
COc1ccc(Br)cc1CN(C)S(=O)(=O)c1c(C)noc1C	i	0.92	78
O=C(Cn1nc(-c2ccc(F)cc2)oc1=O)c1ccc(F)c(F)c1	i	1.1	98
COc1cc(CSc2nnnn2-c2ccccc2)ccc1OC(F)F	i	0.83	90
Nc1nc(N)c2nc(-c3ccccc3)c(N)nc2n1	i	.	.	total CFTR fold 25 µM=0.94;total CFTR viability 25 µM=55
CNS(=O)(=O)c1ccc(C(=O)NCC2CC2)o1	i	0.97	89
CN(CC1CCCCC1)Cn1cc(S(=O)(=O)N(C)C)ccc1=S	i	1	93
CC[N+](C)(C)c1cccc(O)c1	i	.	.	total CFTR fold 25 µM=0.91;total CFTR viability 25 µM=96
CS(=O)(=O)NCC1CCCN(S(=O)(=O)c2ccc3c(c2)CCC3)C1 (stereo not drawn)	i	1.1	90
Cn1c(N)c(C(=O)COC(=O)c2ccc(C#N)cc2)c(=O)n(C)c1=O	i	0.97	100
O=C(COC(=O)c1ccc([N+](=O)[O-])cc1Cl)c1ccc2c(c1)OCCO2	i	0.89	90
CN(CCCNc1nnnn1-c1ccccc1)c1ccccc1	i	0.88	74
O=C1CCOc2c1ccc(Cl)c2Cl	i	1.1	86
O=C1/C(=C/c2ccccc2F)CSc2ccccc21	1.6	1.3	72
O=C(C1CCCO1)N1CCN(Cc2ccc3c(c2)CCO3)CC1 (stereo not drawn)	i	1.1	90
CC(=O)OCC1=C(C(=O)O)N2C(=O)[C@@H](NC(=O)CSc3ccncc3)[C@H]2SC1	i	.	.	total CFTR fold 25 µM=1;total CFTR viability 25 µM=102
Cc1nn(CN(C)C2C3CC4CC(C3)CC2C4)c(=S)n1C (stereo not drawn)	i	1.3	103
C[C@@H](O)[C@H]1C(=O)N2C(C(=O)O)=C(SC3CN[C@H](C(=O)N(C)C)C3)[C@H](C)[C@H]12 (stereo partly drawn)	i	.	.	total CFTR fold 25 µM=1.1;total CFTR viability 25 µM=97
O=C(CN1C(=O)C(=O)N(C2CCCC2)C1=O)NCCC1=CCCCC1	i	0.95	96
c1ccc2c(c1)CCCC2Sc1nnc2ccccn12 (stereo not drawn)	i	1	95
O=C(OCc1nc2ccccc2c(=O)[nH]1)C1(c2ccc(Cl)cc2)CCCC1	i	1.1	89
CCCCCCNC(=O)Nc1cc2c(cc1Br)OCCO2	i	0.88	88
O=C(CSCc1cccs1)Nc1cn[nH]c1	i	1	96

A stretch taken from the entries so far, as a working copy:
SMILES	total CFTR	total CFTR fold 10 ug/mL	total CFTR viability 10 ug/mL	others
COc1cc(CSc2nnnn2-c2ccccc2)ccc1OC(F)F	i	0.83	90
Nc1nc(N)c2nc(-c3ccccc3)c(N)nc2n1	i	.	.	total CFTR fold 25 µM=0.94;total CFTR viability 25 µM=55
CNS(=O)(=O)c1ccc(C(=O)NCC2CC2)o1	i	0.97	89
CN(CC1CCCCC1)Cn1cc(S(=O)(=O)N(C)C)ccc1=S	i	1	93
CC[N+](C)(C)c1cccc(O)c1	i	.	.	total CFTR fold 25 µM=0.91;total CFTR viability 25 µM=96
CS(=O)(=O)NCC1CCCN(S(=O)(=O)c2ccc3c(c2)CCC3)C1 (stereo not drawn)	i	1.1	90
Cn1c(N)c(C(=O)COC(=O)c2ccc(C#N)cc2)c(=O)n(C)c1=O	i	0.97	100
O=C(COC(=O)c1ccc([N+](=O)[O-])cc1Cl)c1ccc2c(c1)OCCO2	i	0.89	90
CN(CCCNc1nnnn1-c1ccccc1)c1ccccc1	i	0.88	74
O=C1CCOc2c1ccc(Cl)c2Cl	i	1.1	86
O=C1/C(=C/c2ccccc2F)CSc2ccccc21	1.6	1.3	72
O=C(C1CCCO1)N1CCN(Cc2ccc3c(c2)CCO3)CC1 (stereo not drawn)	i	1.1	90
CC(=O)OCC1=C(C(=O)O)N2C(=O)[C@@H](NC(=O)CSc3ccncc3)[C@H]2SC1	i	.	.	total CFTR fold 25 µM=1;total CFTR viability 25 µM=102
Cc1nn(CN(C)C2C3CC4CC(C3)CC2C4)c(=S)n1C (stereo not drawn)	i	1.3	103
C[C@@H](O)[C@H]1C(=O)N2C(C(=O)O)=C(SC3CN[C@H](C(=O)N(C)C)C3)[C@H](C)[C@H]12 (stereo partly drawn)	i	.	.	total CFTR fold 25 µM=1.1;total CFTR viability 25 µM=97
O=C(CN1C(=O)C(=O)N(C2CCCC2)C1=O)NCCC1=CCCCC1	i	0.95	96
c1ccc2c(c1)CCCC2Sc1nnc2ccccn12 (stereo not drawn)	i	1	95
O=C(OCc1nc2ccccc2c(=O)[nH]1)C1(c2ccc(Cl)cc2)CCCC1	i	1.1	89

Remaining list, next part
SMILES	total CFTR	total CFTR fold 10 ug/mL	total CFTR viability 10 ug/mL	others
CS(=O)(=O)N1CCCC(C(=O)N2CCSc3ccc(Cl)cc32)C1 (stereo not drawn)	i	1.1	73
CCc1sc(C(=O)OCc2nc(N)nc(N(C)C)n2)cc1C	i	0.94	87
Cc1noc(C)c1CC(=O)NC1CCCC(OCC(F)(F)F)C1 (stereo not drawn)	i	1.1	92
OCCNc1ncnc2scc(-c3ccc(Cl)cc3)c12	i	0.95	86
O=S(=O)(NCCCOc1ccccc1)c1cc(Br)ccc1Br	i	0.92	97
CCC(C)(C)NS(=O)(=O)c1cc2c(cc1[N+](=O)[O-])OCCCO2	i	1	90
CCOC(=O)C1=C(COC(=O)c2ccc3c(c2)OCCO3)NC(=O)NC1c1ccc(Cl)cc1 (stereo not drawn)	i	0.93	96
COCCCNC(=O)Nc1ccc(Br)cc1Br	i	0.93	95
Cc1ccc(F)c(S(=O)(=O)NC2CCCCC2C(F)(F)F)c1 (stereo not drawn)	i	1.1	93
CCN(CC)S(=O)(=O)N1CCN(Cn2nc(-c3ccncc3)n(C3CC3)c2=S)CC1	i	1.1	113
Brc1ccccc1-c1nnc(CSc2nc3ccccc3s2)o1	i	0.92	78
Cc1cc(C)cc(OCCCOn2nnc3ccc(S(C)(=O)=O)cc32)c1	i	0.98	92
Cc1nc(NC(=O)CNC(=O)C23CC4CC(CC(C4)C2)C3)sc1-c1nccn1C(F)F	i	1	102
Cc1nn(C)c(C)c1NC(=O)/C=C/c1ccc(C2CC2C)o1 (stereo not drawn)	i	0.75	78
COc1ccc(Nc2nc(N3CCOCC3)c3ccccc3n2)cc1	i	0.98	75
COC(=O)C1=C(C)NC(C)=C(C(=O)OCCN(C)Cc2ccccc2)C1c1cccc([N+](=O)[O-])c1 (stereo not drawn)	i	.	.	total CFTR fold 25 µM=0.76&0.95;total CFTR viability 25 µM=77&80
CCn1c(-c2ccccc2)nn(CN2CCOC(C)C2)c1=S (stereo not drawn)	i	0.98	91
CCn1nnnc1SCc1nc2ccccc2c2ccccc12	i	1.1	89
Cc1cc(Cl)c(C)c(S(=O)(=O)Nc2ccc3c(c2)OCCO3)c1Cl	i	0.83	68
Cc1ccc(COc2ncnc3sc4c(c23)CCC(C)C4)cc1 (stereo not drawn)	i	0.96	110
Cc1cc(NC(=O)C(C)(C)C)sc1C(=O)N1CC(C)CC(C)C1 (stereo not drawn)	i	0.99	106
c1ccc(-n2nnnc2Sc2ccc3nnnn3n2)cc1	i	0.7	70
O=S(=O)(N1CCCC1)N1CCN(Cc2nc(-c3ccccc3)no2)CC1	i	0.93	74
CS(=O)(=O)N1CCC(NC(=O)N2CCN(c3ncccn3)CC2)CC1	i	0.95	92

Next part, starting with the last 2 of the part before.
SMILES	total CFTR	total CFTR fold 10 ug/mL	total CFTR viability 10 ug/mL	others
O=S(=O)(N1CCCC1)N1CCN(Cc2nc(-c3ccccc3)no2)CC1	i	0.93	74
CS(=O)(=O)N1CCC(NC(=O)N2CCN(c3ncccn3)CC2)CC1	i	0.95	92
CC(C)CCN1CCN(S(=O)(=O)c2ccc(S(C)(=O)=O)cc2)CC1	i	0.88	100
CCOc1ccc(N2C(=O)c3ccccc3NC23CCSC3)cc1 (stereo not drawn)	i	0.9	91
OCCNc1nc(CSc2ccc(Br)cc2)nc2sc3c(c12)CCCC3	i	0.92	81
CC(C)N1C(=O)C(=O)N(CN2CCN(CCc3ccccc3)CC2)C1=O	i	1	114
COc1cc(CCNC(=O)C23CC4CC(CC(O)(C4)C2)C3)c([N+](=O)[O-])cc1OC	i	1.1	104
Cn1cnc2c1c(=O)[nH]c(=O)n2C	i	.	.	total CFTR fold 25 µM=0.88;total CFTR viability 25 µM=91
O=S(=O)(NCCOc1ccc(F)cc1)N1CCOCC1	i	1.1	104
CC1CCN(S(=O)(=O)NCCN2CCN(c3ccccc3)CC2)CC1	i	0.97	93
CC(CO)NC(=O)Nc1ccc2c(c1)OCO2 (stereo not drawn)	i	0.97	87
Nc1nc(SC2CCOC2=O)nc2sc3c(c12)CCCC3 (stereo not drawn)	i	1	94
FC(F)(F)c1nnc2ccc(Nc3cnn(Cc4ccccc4)c3)nn12	i	1.1	77
O=S(=O)(CCn1cnc2ccccc21)NC1CCN(C2CC2)CC1	i	1.1	90
COc1cc(C2C=C(c3ccccc3OC)Nc3nc(C(F)(F)F)nn32)c([N+](=O)[O-])cc1OC (stereo not drawn)	i	0.92	91
O=S(=O)(N1CCN(Cc2nc(-c3ccc(Cl)cc3)no2)CC1)N1CCc2ccccc2C1	i	0.89	93
C[C@]12C=CC(=O)C=C1CCC1C2[C@@H](O)C[C@@]2(C)C1CC[C@]2(O)C(=O)COP(=O)(O)O (stereo partly drawn)	i	.	.	total CFTR fold 25 µM=1.1;total CFTR viability 25 µM=91
Cc1noc(C)c1CSCC(=O)NC(C1CC1)C1CC1	i	1.1	109
Fc1ccc(-n2c(SCC34CC5CC(CC(C5)C3)C4)nnc2-c2ccc(Cl)cc2Cl)cc1Cl	i	1	102
CCCNC(=O)NC(=O)CSc1n[nH]c(=O)n1CCC	i	0.99	105
CSc1nnc(SCC(=O)NCC(F)(F)F)s1	i	1	103
NC(=O)c1ccsc1NC(=O)CN1CCOCC1	i	0.99	92
O=C(Nc1ccc2c(c1)Cc1ccccc1-2)C1CCCO1 (stereo not drawn)	i	1	89
COCC(C)NC(=O)Cn1nnn(-c2cccs2)c1=O (stereo not drawn)	i	1.1	93
CCCCOc1ccc(C(=O)CCN2CCCCC2)cc1	i	.	.	total CFTR fold 25 µM=1.1;total CFTR viability 25 µM=93
CC1(C)Cc2cccc(OCC(=O)C34CC5CC(CC(C5)C3)C4)c2O1	i	0.91	88
CCCC1CC(=O)C2=C(C1)Nc1nc(C(F)(F)F)nn1C2c1ccc(Cl)cc1 (stereo not drawn)	i	1.1	88
O=S(=O)(c1ccc(Br)cc1)N(Cc1ccc(F)cc1)C1CC1	i	1	97
C[C@@H]1O[C@@H](OC[C@H]2OC(Oc3c(-c4ccc(OCCO)c(OCCO)c4)oc4cc(OCCO)cc(O)c4c3=O)[C@H](O)[C@@H](O)[C@@H]2O)[C@H](O)[C@H](O)[C@H]1O (stereo partly drawn)	i	.	.	total CFTR fold 25 µM=1.1;total CFTR viability 25 µM=101
CC(=O)c1ccc(C(=O)NCCNc2cnccn2)s1	i	1.2	92
CC(C)(C)Nc1nnc(SCC(=O)N2CCCC2=O)s1	i	1.1	110
NC(=O)N1c2ccccc2C=Cc2ccccc21	i	.	.	total CFTR fold 25 µM=0.96&0.95&1;total CFTR viability 25 µM=84&89&100
CN[C@@H]1[C@H](O[C@H]2[C@H](O[C@@H]3[C@@H](O)[C@H](O)[C@@H](N=C(N)N)[C@H](O)[C@H]3N=C(N)N)O[C@@H](C)[C@]2(O)C=O)O[C@@H](CO)[C@H](O)[C@H]1O	i	.	.	total CFTR fold 25 µM=1.1;total CFTR viability 25 µM=104
c1ccc(OCCSc2nc(-c3cccs3)nc3ccccc23)cc1	i	1	102
O=C1C(=O)N(Cc2ccccc2)C(=O)N1CCc1cccs1	i	1.1	103
CC(C)n1ncc2cc(NS(=O)(=O)c3ccc(Cl)c(Cl)c3)cnc21	i	0.99	83
CCn1c(=O)c2ccccc2n2c(COc3ccc(C)c4c3C(=O)CC4C)nnc12 (stereo not drawn)	i	0.93	80
CCOC(=O)N1CCN(Cn2c(=S)n(C(F)F)c3ccccc32)CC1	i	1.1	108
CCC(CO)NCc1cc(OC)c(OC)cc1Br (stereo not drawn)	i	1.2	98

Source: PubChem BioAssay (Southern Research Institute)
